MT1-MMP act inh: MT1-MMP (human) activation inhibition; P50281; HT1080 RFP-PRO-GFP cells, GFP/RFP ratio fluorescence, overnight; percent of plate control window, DMSO zero; GFP/RFP ratio change, % at 20 µM; actives 0.061% (n = 360,000); AID 651647;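 active means GFP/RFP ratio change of at least 30% with cell ATP level not reduced by more than half and red fluorescence within 50% of control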; further: strong numbers were not always called active
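Assay system: HT1080 RFP-PRO-GFP cells. Benchmarks: DMSO vehicle wells and RFP-L50D-GFP reporter cell wells. Times: overnight cell settling, then overnight compound exposure, 37 °C, 5% CO2. Compound: 20 µM single dose, 1% DMSO. Read-out basis: GFP/RFP fluorescence ratio.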
Rce1 inh: yeast Ras-converting enzyme inhibition; Q03530; yeast membranes, quenched prenylated peptide cleavage fluorescence; actives 0.27% (n = 290,000); calls only; AID 2563;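 active means fall in fluorescence gain of 50% or more versus controls, with final raw signal at or below 3038400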;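 further: plate controls were neutral control wells for no effect and wells lacking membranes for full effect; tested at 10 µM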
Target sequence (Q03530 whole entry, looked up): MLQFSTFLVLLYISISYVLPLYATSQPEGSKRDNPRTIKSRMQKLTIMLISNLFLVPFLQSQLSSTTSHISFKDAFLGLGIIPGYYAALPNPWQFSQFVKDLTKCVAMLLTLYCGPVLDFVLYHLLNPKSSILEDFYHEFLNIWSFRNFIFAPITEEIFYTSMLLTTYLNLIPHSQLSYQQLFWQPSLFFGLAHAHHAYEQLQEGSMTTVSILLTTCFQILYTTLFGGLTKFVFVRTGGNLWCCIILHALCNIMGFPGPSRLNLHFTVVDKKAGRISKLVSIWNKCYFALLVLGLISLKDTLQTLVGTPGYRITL
Env fusion inh: HIV envelope-mediated fusion inhibition | HeLa-JRFL Env/CEM21 cell fusion, luciferase | inhibition, % at 12.3 µM | AID 651610 | actives 1.1% (n = 360,000);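 active means mean replicate inhibition score of at least 50 and every replicate individually at or above 50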;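 further: 0% = plate neutral controls and 100% = maraviroc near 300 nM; one replicate is shown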
CSC inhib: cancer stem cell inhibition; cancer stem cell-like cells viability, luminescence; actives 1.1% (n = 300,000); inhibition, % at 7.5 µM;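 active means mean at 75% or more and at least half the replicates too; tested in HMLE shEcad cells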;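 further: 0% = median of negative and 100% = median of positive control wells; the first replicate is given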
Yeast UUG start: alters start codon recognition fidelity in yeast; activity score, % at 18.7 µM; S. cerevisiae UUG-firefly luciferase reporter, luminescence/redox ratio; actives 0.13% (n = 350,000); AID 602363;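 active means replicate mean at a twofold rise or more, about +100% in these data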;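 further: firefly luciferase made from a UUG start codon reports start codon fidelity; reporter light over untreated wells divided by growth signal over untreated wells; some hits fall short of that in this replicate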
PABP polyA inh: PABP-poly(A) binding inhibition; PABP-poly(A) RNA binding, fluorescence polarization; P11940; AID 2014; actives 1% (n = 290,000); inhibition, % at 35 µM;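 active means 50% or more with normal probe brightness, or confirmed in later tests; about a fifth of its hits are not listed in these tables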;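 further: calls also rest on retests at 20 µM and on dose response follow-up; controls were probe without protein and protein plus probe with vehicle; some compounds called inactive have numbers as strong as hits; many hits fall short of the cut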
eIF4H FP inh: inhibitors of RNA binding by human eIF4H; Q15056; inhibition, % at 35 µM; actives 0.94% (n = 290,000); eIF4H fluorescence polarization binding assay; AID 2012;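 active means 50% or more with normal probe brightness, or confirmed in later tests; about a fifth of its hits are not listed in these tables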;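 further: calls also rest on retests at 20 µM and on dose response follow-up; 0% = protein and probe with vehicle and 100% = probe without protein; strong numbers were not always called active; many hits fall short of the cut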
eIF4H FP inh retest: further read-out of eIF4H FP inh, marked with its call; inhibition, %; compound at 20 µM; confirmation average;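 mean of two retest wells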
PABP polyA inh retest: further read-out of PABP polyA inh, marked with its call; inhibition, %; compound at 20 µM; confirmation repeats;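 mean of two retest wells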
MT1-MMP act inh RFP: further read-out of MT1-MMP act inh, marked with its call; RFP signal change, %; measured here: RFP expression control read;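 0 = vehicle wells; hits needed this value within 50% of zero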
Active calls of the source: *; i = inactive; . = no result given; & = joins results of further samples; [ ] = another dose, or the depositor's remark.

SMILES	MT1-MMP act inh	MT1-MMP act inh RFP	Rce1 inh	Env fusion inh	CSC inhib	Yeast UUG start	PABP polyA inh	eIF4H FP inh	others
C=CCn1c(SCC(=O)N2CCOCC2)nc2sc3c(c2c1=O)CCCC3	7	1	.	.	52	-12	4	-17
O=C1c2ccccc2-c2cc(Br)ccc2NC1O (stereo unspecified)	-2	2	.	-1	.	-44	.	.
Cc1ccc(S(=O)(=O)N2CCC(C(=O)OC(C)C(=O)NC3CCCCC3C)CC2)cc1C (stereo unspecified)	-3	-6	.	4	.	-2	.	.
N#Cc1c(SCC(N)=O)nsc1SCc1ccccc1Cl	2	3	i	.	10	-20	-4	-10
CCOc1ccc(CCNC(=O)Cc2ccc(S(=O)(=O)N3CCOCC3)s2)cc1OCC	3	-3	i	.	-7	-2	.	.
O=C(N1CCOCC1)C(F)(F)C(=O)N1CCOCC1	-2	5	i	.	-2	-15	-4	-4
Cc1cc(N2CCC(C(N)=O)CC2)nc(-c2ccccc2)n1	1	2	i	.	6	-52	0	2
Cc1ccc(NC(=O)c2cc(S(=O)(=O)N3CCc4ccccc43)cn2C)cc1C	-6	-13	i	2	33	-4	-12	0
COc1ccccc1NC(=O)CN(c1ccc(C)cc1)S(=O)(=O)c1c(C)n[nH]c1C	4	0	i	-23	25	-9	4	-8
CCCCOc1ccc(C(=O)N/C(=C\c2ccc([N+](=O)[O-])cc2)C(=O)OCc2ccco2)cc1	0	-1	i	-39	7	.	-8	2
CC1(C(=O)NS(=O)(=O)c2ccccc2)CCN1C(=O)CC(c1ccccc1)c1ccccc1 (stereo unspecified)	-1	0	.	-9	.	5	.	.
Cc1ccc2oc(C(=O)N3CCCCCC3)c(C)c2c1	-6	-2	i	.	14	4	-2	-2
N#CCCNC(=O)CCN1CCCCC1	2	5	i	.	-9	.	4	3
CSc1ccc(NC(=O)N2CCN(c3nc4ccccc4s3)CC2)cc1	5	-10	i	28	-6	-21	-5	1
O=C(NCC(O)CN1CCOCC1)c1ccc([N+](=O)[O-])cc1 (stereo unspecified)	-1	-1	i	23	-35	.	56	1	eIF4H FP inh retest=6;PABP polyA inh retest=4
COc1cccc(N2CC(O)Cn3c2nc2c3c(=O)n(CCCc3ccccc3)c(=O)n2C)c1 (stereo unspecified)	-4	-10	.	.	-14	-13	2	-7
CCOC(=O)Cc1ccc(NCc2ccc(Cl)cc2)cc1	-4	-1	i	-6	3	.	-6	-9
CCOC(=O)CN1CC23C=CC(O2)C(C(=O)Nc2ccc4c(c2)OCO4)C3C1=O (stereo unspecified)	3	5	i	-10	-16	-3	-1	-4
CN(Cc1ccccn1)C(=O)c1cc(COc2ccc(F)cc2Cl)on1	1	0	.	-18	.	24	.	.
Clc1ccccc1COc1ccccc1-c1nnco1	-5	-2	i	.	-9	-10	-4	-15
O=C(CN1CCN(c2ccccc2O)CC1)NNC(=O)c1ccc(Cl)cc1	4	9	i	5	-5	.	-2	2
CC(C)Nc1nc(NC(C)C)nc(N(C)C#N)n1	6	3	i	-66	-14	2	6	-8
C[C@@H]1CN([C@@H](C)CO)S(=O)(=O)c2ccc(Br)cc2O[C@@H]1CN(C)C(=O)c1ccc(F)cc1	4	1	.	3[16.7 µM]	.	-7&3	.	.
Cc1ccc2oc(=O)n(CC(=O)OC(C)C)c2c1	-7	3	i	.	1	-10	-6	-10
Cc1ccc(C(=O)COC(=O)c2ccccc2NC(=O)c2ccccc2)cc1[N+](=O)[O-]	6	5	i	27	-6	2	3	3
Cc1cc(C)c(C#N)c(SCC(=O)C2CC2)n1	-1	-2	i	-10	-6	-25	-2	-5
O=c1c2cccnc2nc2n1CCCCC2	-2	4	i	-10	-6	.	-7	3
COc1ccccc1NC(=O)CSc1nnc(CNC(=O)c2ccccc2F)o1	-4	2	i	-7	4	-13	0	-5
CC1(C)O[C@@H]2C[C@H]3[C@@H]4C[C@H](F)C5=CC(=O)C=C[C@]5(C)[C@H]4[C@@H](O)C[C@]3(C)[C@]2(C(=O)CO)O1	-3	2	.	i	-7	-1	.	.
Cn1c(NC(=O)/C=C\c2ccccc2)cc(=O)n(C)c1=O	-3	-2	i	13	-16	.	8	0
Cc1noc(C)c1S(=O)(=O)Nc1ccc(C(=O)NC2CCCCC2)cc1	5	-6	.	.	.	6	6	-5
COC(=O)c1ccc(CN2CCCC(C(=O)c3ccccc3OC)C2)cc1 (stereo unspecified)	0	-1	i	18	-5	-13	3	1
CCCCc1nnc(NC(=O)c2ccc(N3CCCC3=O)cc2)s1	8	-6	i	8	5	-12	.	.
Cc1ccc(-c2[nH]n3c(=O)c4c(nc3c2C)CCCC4)cc1	3	4	.	-166	-6	-16	18	-11
CCOCc1nnc(NC(=O)c2ccc(OC)cc2)s1	.	.	i	.	2	-4	4	0
COc1ccc(C2=Nc3ccccc3C2(O)CCN2C(=O)c3ccccc3C2=O)cc1 (stereo unspecified)	2	2	.	8	.	-19	.	.
O=C(CBr)c1ccc([N+](=O)[O-])c(CS(=O)(=O)c2ccc(Cl)cc2)c1	0	3	i	-8	12	-14	15	5
Cc1nc(-c2ccccc2)sc1C1(C)CC(c2ccc(OC(F)(F)F)cc2)=NO1 (stereo unspecified)	1	2	.	14	7	-14	5	-10
C/C(=N\Nc1ccc(S(=O)(=O)Nc2ccc(Cl)cc2)cc1[N+](=O)[O-])c1ccc(N2CCOCC2)cc1	9	-2	i	-17	-1	-17	12	-6
Cc1cc(C(=O)Nc2ccccc2C)c2ccccc2n1	-1	0	i	3	1	-15	16	20
O=C1CCN(CCc2ccccc2)CCN1[C@H](CSc1ccccc1)c1ccccc1	-5	-4	i	6	22	-8	-2	2
Nc1nnn(CC(=O)N/N=C/c2cccc(Cl)c2)n1	4	4	.	-14	-4	-22	-11	-1
O=C(Nc1cccc2cccnc12)c1ccc2sc([C@H]3C[C@H](O)[C@@H](CO)O3)nc2c1	2	-7	.	-6	.	-19	.	.
COc1cc(CN2CCC(C(=O)NCCC(C)C)CC2)ccc1OCc1ccccc1	5	-5	i	-12	3	3	6	-2
O=[N+]([O-])c1cccnc1NCCNc1ncc(C(F)(F)F)cc1Cl	2	-8	i	.	-10	3	-20	-11
COc1ccc(NC(=O)c2ccco2)cc1NC(=O)COc1ccccc1[N+](=O)[O-]	-1	-9	i	10	-5	-16	1	-7
COCC1CCCN(C(=O)c2cc(COc3cncc(Cl)c3)on2)C1 (stereo unspecified)	-1	-12	i	-5	-5	-4	0	-14
O=C(CSc1nnc2ccccn12)Nc1ccc(N2CCOCC2)cc1	-1	1	.	.	-7	-3	.	.
O=C(CN1CCN(c2ccc([N+](=O)[O-])cc2)CC1)c1ccccc1	1	2	i	21	.	0	12	-2
C(#Cc1ccc2c(c1)COc1c3ccccc3nn1-2)c1ccccc1	-12	3	i	-116	36	-20	.	.
O=C(c1ccco1)N1c2ccccc2Sc2ccccc21	-3	2	i	.	-7	0	-2	5
Cc1ccsc1/C=N/n1c(C2CCCCC2)n[nH]c1=S	1	3	i	10	-18	-31	-13	-6
COc1ccc(S(=O)(=O)N(C)CC(=O)Nc2ccccc2SC)cc1	0	-1	i	.	2	7	3	-17
O=C(O)Cn1cnc2c(OCc3ccccc3)ncnc21	6	6	.	-11	.	-9	.	.
NC(=O)C1CCN(C(=O)COc2ccc(Nc3ccccc3)cc2)CC1	-1	1	i	10	-4	.	-12	-1
Cc1ccc(C(=O)COC(=O)CN2C(=O)C3C4C=CC(C4)C3C2=O)cc1[N+](=O)[O-] (stereo unspecified)	5	3	i	.	15	-11	0	0
O=c1cnnc(N/N=C/c2ccccn2)[nH]1	8	-6	i	-84	120*	-26	-9	11
c1ccc2c(c1)Sc1ccccc1-n1cnnc1-2	-4	-1	i	-106	16	-8	-4	3
O=C(CSc1nnc(-c2ccccc2)o1)c1ccc2c(c1)OCCO2	4	-1	i	.	0	0	5	9
O=C(NCC1COc2ccccc2O1)c1cccc(S(=O)(=O)NCc2ccccc2)c1 (stereo unspecified)	6	-5	i	7	19	-7	.	.
Remaining list, next part
SMILES	MT1-MMP act inh	MT1-MMP act inh RFP	Rce1 inh	Env fusion inh	CSC inhib	Yeast UUG start	PABP polyA inh	eIF4H FP inh	others
CN(C(=O)CSc1nnc(-c2ccco2)o1)C1CCCCC1	2	1	i	.	-14	-19	-7	-5
CC(C(=O)O/N=C(\N)c1ccccn1)c1ccc([N+](=O)[O-])cc1 (stereo unspecified)	0	3	i	-23	3	-19	-14	-7
Cc1cc(C)c(N(CC(=O)NCc2ccccc2)C(=O)c2csnn2)c(C)c1	-2	-4	.	2	17	1	-6	-10
CC(=O)c1ccc(OCc2ccc(Oc3c(Cl)cccc3[N+](=O)[O-])cc2)cc1	-1	-5	i	10	15	.	-2	-6
CC(C)CN1C=C2C(=O)C(C)(OC(=O)C3CCCC3)C(=O)C=C2C=C1c1ccsc1 (stereo unspecified)	-2	6	i	24	13	-13	38*	55	eIF4H FP inh retest=22;PABP polyA inh retest=55*
COCCN1C=C2C(=O)C(C)(OC(=O)CCC(=O)OC)C(=O)C(Br)=C2C=C1c1ccc(OC)cc1 (stereo unspecified)	6	10	i	.	9	-2	.	.
Cc1ccc(CS(=O)(=O)Cc2ccc(C(=O)NC3CCCC3)o2)cc1	-1	2	i	5	-17	-1	0	10
CC(C)NC(=O)c1ccc(COc2ccc(C(C)(C)C)cc2)o1	5	-20	i	-18	.	43	4	-10
COC(=O)c1ccc2c(=O)n(CCCCCC(=O)O)c(=S)[nH]c2c1	4	7	i	5	0	.	2	4
Cc1ccc(C(C)C)c(OCCCN2CCc3ccccc3C2)c1	-2	-3	i	15	15	-3	0	-2
CCO[C@H]1OC(C(=O)NCc2nc3ccccc3[nH]2)=C[C@@H](c2cn(C(C)=O)c3ccccc23)[C@@H]1CCCO	-2	-2	i	-16[16.7 µM]	-8	2&-14	.	.
CS(=O)(=O)NCCCc1ccccc1	-4	-4	i	.	-5	2	13	-11
Cc1ccc(S(=O)(=O)N2CCOCC2)cc1NC(=O)Cn1nc(C)c([N+](=O)[O-])c1C	1	-3	i	-52	-9	.	.	.
Cc1ccc(S(=O)(=O)NC(CN2CCOCC2)=NCCNS(=O)(=O)c2ccccc2)cc1	0	-1	i	-32	-5	5	11	1
CCOCCCn1c(C)nc2c(c1=O)c1nc3ccccc3nc1n2-c1ccc2c(c1)OCCO2	.	.	i	.	-8	.	-4	-9
COc1ccc(NC(=O)CSc2nc(C3CC3)nc3ccccc23)cc1	-7	-12	i	-28	.	-13	2	3
CCCCCCNC1=NCCS1	2	6	i	13	-15	.	-4	3
CCOC1=C2CN(S(=O)(=O)c3ccc(C)cc3)[C@H](c3cccs3)C[C@H]2[C@H]2C(=O)N(c3ccccc3)C(=O)[C@H]2C1	4	-1	.	5	.	-5	.	.
O=C1CCc2cc(NS(=O)(=O)c3ccc(F)cc3)cc3c2N1CC3	5	0	i	-29	-11	.	.	.
COCCNC(=O)CN(C(=O)CCC(=O)Nc1ccccn1)c1ccc(C)cc1C	-1	6	i	-5	2	5	-10	-14

4 compounds drawn at random from those above:
SMILES	MT1-MMP act inh	MT1-MMP act inh RFP	Rce1 inh	Env fusion inh	CSC inhib	Yeast UUG start	PABP polyA inh	eIF4H FP inh	others
Cc1cc(C)c(N(CC(=O)NCc2ccccc2)C(=O)c2csnn2)c(C)c1	-2	-4	.	2	17	1	-6	-10
CCOCCCn1c(C)nc2c(c1=O)c1nc3ccccc3nc1n2-c1ccc2c(c1)OCCO2	.	.	i	.	-8	.	-4	-9
CC(C(=O)O/N=C(\N)c1ccccn1)c1ccc([N+](=O)[O-])cc1 (stereo unspecified)	0	3	i	-23	3	-19	-14	-7
Cc1ccc(S(=O)(=O)N2CCOCC2)cc1NC(=O)Cn1nc(C)c([N+](=O)[O-])c1C	1	-3	i	-52	-9	.	.	.

No enrichment for hits; overall some 2.9% were active at least once.
